High-throughput results from PubChem.
Rango complex inh = Rango-importin beta binding inhibition; Q14974; Rango CFP/YFP FRET sensor + importin beta, 45 min; Potency, µM (series often up to 92.2 µM), inactives show at the top dose inhibition of complex formation; 0.031% of 340,000 active; AID 540263; active = rising FRET ratio curve, often small or poorly fitted; inconclusive = mostly compound fluorescence or quenching in the first reads; inactive = flat curves in all reads;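 note: potency is the fitted concentration of half-maximal effect; 0% = DMSO wells and 100% = buffer wells lacking importin beta; nearly all actives have a fitted effect of over 15% in size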
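Inhibition scored from the CFP 486 nm/YFP 530 nm FRET ratio 45 min after adding 0.125 microM importin beta to 50 nM Rango biosensor preincubated 5 min with compound (room temperature, PBS with DTT, Tween-20, BSA). No-importin wells as positive control.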
miR-21 FLuc = raises the signal of a miR-21 reporter | 340,000 tested, under 10 active | HeLa miR-21 FLuc reporter, luciferase, 48 h | Potency, µM (titrated, usually from 38.3 µM), without a hit: top-dose reporter change, positive = more light; active = well fitted rising curve with a large enough effect; inconclusive = small, poorly fitted or top-dose-only effect; inactive = no such curve, though single readings can be large or run the other way;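 note: % of control where 0% means no effect; miR-21 action dims this reporter so a rising signal means less miR-21 action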
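HeLa cells endogenously expressing miR-21, stably carrying CMV-driven firefly luciferase with a downstream miR-21 binding site, 2000 cells/well. Titrations up to approximately 40 uM, 48 hours; luciferase luminescence read.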
GLA inh pH 4.5 = blocks human alpha-galactosidase A at pH 4.5; purified enzyme, 4-MU-alpha-Gal fluorescence, pH 4.5; activity change, negative = inhibition, % at 105 µM; 230,000 tested, under 10 active; AID 1467; inconclusive = small, poorly fitted or top-dose-only inhibition, or a rising curve; inactive = flat fitted curve, though single readings scatter; no compound was filed as active;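 note: 0% = full activity with enzyme and -100% = basal without enzyme; dose as in the result columns while the protocol names 77 µM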
Target sequence (P06280 whole entry, looked up): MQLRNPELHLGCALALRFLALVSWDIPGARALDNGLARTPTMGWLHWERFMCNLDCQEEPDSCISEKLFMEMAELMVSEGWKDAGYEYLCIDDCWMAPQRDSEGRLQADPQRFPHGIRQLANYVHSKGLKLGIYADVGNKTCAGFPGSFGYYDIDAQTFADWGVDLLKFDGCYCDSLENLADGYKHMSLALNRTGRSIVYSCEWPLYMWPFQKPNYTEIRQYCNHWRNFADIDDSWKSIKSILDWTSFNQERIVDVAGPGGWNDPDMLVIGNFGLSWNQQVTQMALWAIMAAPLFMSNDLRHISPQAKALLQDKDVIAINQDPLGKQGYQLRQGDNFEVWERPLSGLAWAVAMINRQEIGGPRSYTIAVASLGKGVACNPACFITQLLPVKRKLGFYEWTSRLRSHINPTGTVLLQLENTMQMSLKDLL
Rango dissoc inh = inhibition of RanGTP-driven Rango-importin beta dissociation; O95149+P62826; Biochemical FRET Rango-importin beta, RanGTP-induced dissociation; Potency, µM (titrated, usually from 46.1 µM), without a hit: at the top dose activity change, negative = inhibition; 0.071% of 340,000 active; AID 540253; active means falling FRET ratio curve, often poorly fitted, with flat reads before Ran was added; inconclusive means other falling curves, or compound fluorescence or quenching; inactive means flat or rising ratio curve;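 note: potency is the fitted concentration of half-maximal effect; % of control where 0% means no effect; nearly all actives have a fitted effect of over 45% in size; -100% = wells without RanGTP and RCC1; the record marks most hits as doubtful in a second field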
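Recombinant Rango FRET biosensor (EYFP–snurportin 1 IBB–cerulean CFP10) at 0.1 uM premixed with 0.25 uM importin beta in PBS, 1 mM DTT, 0.02% Tween-20, 0.1% BSA. Compound added 5 min; RanGTP-RCC1 (0.6 uM Ran, 2 mM GTP, 0.2 uM RCC1) then triggers release, read at 45 min.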
* = called active by the depositor; ? = inconclusive; nt = no result given. A portion of the library, so the mix of outcomes need not match the whole.

Short keys – A = Rango complex inh; B = miR-21 FLuc; C = GLA inh pH 4.5; D = Rango dissoc inh
C=CCN1C=CC(=O)[C@@H](OC(=O)Nc2ccc(Br)cc2)[C@H]1c1ccccc1Br
  A = 1.0% | B = nt | C = nt | D = 4.6%

Cc1ccccc1C(=O)NCCN1CCOCC1
  A = 2.4% | B = -7.3% | C = -0.6 | D = 10.9%

CC(C)CCn1cnc2c(cnn2-c2ccc(Cl)cc2)c1=O
  A = 2.5% | B = -3.6% | C = 6.7 | D = 4.1%

O=C(CN1CCN(c2ccc(O)cc2)CC1)Nc1cc(S(=O)(=O)N2CCCC2)ccc1Cl
  A = -0.9% | B = -7.5% | C = -8.2 | D = 9.1%

O=C(NCc1cccnc1)c1ccc(-c2ccc(Cl)cc2)o1
  A = 5.0% | B = -10.6% | C = -1.9 | D = 7.2%

COc1ccc(C2C(=O)N(C3CCCCC3)CC(=O)N2Cc2ccc3c(c2)OCO3)cc1 (centres undefined)
  A = -0.3% | B = -3.6% | C = -4.5 | D = -7.9%

CCCCn1nnnc1SCC(=O)Nc1cccc(C)c1
  A = 0.8% | B = -4.2% | C = nt | D = 23.1%

C#CC(C)OC(=O)Nc1cnccc1C(F)(F)F (centres undefined)
  A = -0.8% | B = -4.8% | C = -2.9 | D = -18.6%

Cc1ccc2oc(C(=O)NCc3ncc(C)[nH]3)c(C)c2c1
  A = -6.5% | B = 13.2% | C = nt | D = 0.0%

Cc1ccsc1/C=N/NC(=O)c1cccc(S(=O)(=O)Nc2ccccc2Cl)c1
  A = -0.1% | B = -8.7% | C = -10.9 | D = 1.3%

Cc1ccc(-c2csc(NC(=O)CSc3nc(C)cc(=O)[nH]3)n2)cc1
  A = 5.0% | B = -17.2% | C = -2.9 | D = -4.2%

C/C(=C/C(=O)N1CCN(C)CC1)C(=O)O
  A = 3.6% | B = -3.2% | C = 5.6 | D = -16.5%

COCCn1c(=S)[nH]c2cc(C(=O)N3CCC(C(N)=O)(N4CCCCC4)CC3)ccc2c1=O
  A = 0.9% | B = -3.7% | C = -4.8 | D = -2.3%

COc1ccc(CN2CCNC(=O)C2CC(=O)NCc2csc(C)n2)c(F)c1 (centres undefined)
  A = -0.3% | B = -1.4% | C = nt | D = -2.0%

Cc1ccc(NC(=O)C(C)N2C(=O)c3ccccc3C2=O)c(C)c1 (centres undefined)
  A = 2.6% | B = -1.5% | C = nt | D = 6.1%

Cc1cccc(/C=N/n2c(-c3ccccn3)n[nH]c2=S)c1
  A = nt | B = -18.3% | C = -19.5 | D = nt

CCN(CC)S(=O)(=O)c1cccc(NC(=O)CN(C)C2CCCCC2)c1
  A = -2.5% | B = -1.7% | C = -9.1 | D = -7.4%

COc1ccc(C(C)(C)C)cc1NC(=O)c1cc(S(=O)(=O)N(C)C)ccc1N1CCCC1
  A = -0.4% | B = -20.7% | C = -13.7 | D = -7.5%

COc1cccc(C(=O)N2CCCc3ccccc32)c1
  A = 0.5% | B = -10.3% | C = 4.2 | D = 12.1%

O=C(COC(=O)C(O)c1ccccc1)c1ccc2c(c1)OCCO2 (centres undefined)
  A = -5.3% | B = -14.5% | C = -0.8 | D = -11.1%

OC(COC(c1ccc(F)cc1)c1ccc(F)cc1)CN1CCc2ccccc2C1 (centres undefined)
  A = 1.7% | B = -0.9% | C = -4.5 | D = 0.1%

Cc1ccc(NC(=O)CN2C(=O)NC3(CCCc4ccccc43)C2=O)c(C)c1 (centres undefined)
  A = 0.2% | B = nt | C = nt | D = 0.3%

C=C(c1cn(C(C)=O)c2ccccc12)c1cn(C(C)=O)c2ccccc12
  A = -0.4% | B = nt | C = nt | D = -3.9%

CCOC(=O)C1C(=O)NC(N2CCN(CC)CC2)=NC1c1ccccc1 (centres undefined)
  A = 1.3% | B = -4.8% | C = -4.7 | D = 3.1%

O=C(CCCC(=O)OCC(=O)c1ccc(Cl)cc1Cl)Nc1cc(C(F)(F)F)ccc1Cl
  A = 0.8% | B = -5.7% | C = 5.2 | D = 3.4%

Cc1ccc(-c2cc(C(F)F)nc(S(C)(=O)=O)n2)cc1
  A = -0.4% | B = 25.8% | C = -1.2 | D = -3.0%

CCCNC(=O)COC(=O)C1CCN(S(=O)(=O)c2ccc3c(c2)OCCO3)CC1
  A = 2.7% | B = nt | C = nt | D = -10.0%

CCOc1cc(C(=O)Nc2ccc3c(c2)OCO3)ccc1OC(F)F
  A = -1.4% | B = -6.0% | C = -4.9 | D = 30.0%

N#Cc1c(-c2ccccc2)ccnc1Oc1ccccc1
  A = 0.0% | B = -44.0% | C = -1.2 | D = -10.1%

Nn1c(-c2ccc(F)cc2)nc2ccccc2c1=O
  A = -4.9% | B = -4.3% | C = nt | D = 20.2%

Nc1c(C(=O)Nc2ccc3c(c2)OCCO3)nnn1Cc1cccc(Br)c1
  A = 1.8% | B = nt | C = nt | D = -2.5%

Cc1ccc(C(=O)NCC(=O)OCC(=O)Nc2cc(S(=O)(=O)N3CCOCC3)ccc2Cl)s1
  A = 4.6% | B = nt | C = nt | D = -10.2%

CCOc1cc(S(=O)(=O)Nc2ccc(Cl)cn2)ccc1Cl
  A = 0.2% | B = -6.2% | C = -3.6 | D = 17.4%

CCOc1ccc(-n2c(=S)sc3c(=O)[nH]c(SCC(=O)N4CCC(C)CC4)nc32)cc1
  A = 1.6% | B = -5.4% | C = 3.6 | D = 14.5%

Cc1cc(NC(=O)COC(=O)C2CC(=O)N(c3cccc(Cl)c3)C2)no1 (centres undefined)
  A = -1.4% | B = 0.2% | C = nt | D = 5.2%

N=C1C(c2ccccc2)=C(O)C2CCc3ccccc3N12 (centres undefined)
  A = 2.8% | B = -2.7% | C = 0.1 | D = -0.6%

CCN(CC)c1ccc(NC(=O)c2ccc(=O)[nH]c2)cc1S(=O)(=O)Nc1ccc(OC)cc1
  A = 0.9% | B = nt | C = nt | D = -7.8%

O=C(CN1CCN(c2ncccn2)CC1)N(Cc1ccccc1)c1ccc(F)cc1
  A = -2.7% | B = 4.0% | C = -4.1 | D = 0.6%

O=C(CN1CCN(Cc2ccc(F)cc2)CC1)NCc1ccccc1
  A = 0.8% | B = -0.8% | C = nt | D = -3.8%

COc1ccc(-c2c(NC(=O)c3ccco3)oc3ccccc3c2=O)cc1OC
  A = -0.6% | B = -3.3% | C = nt | D = 10.3%

Cc1cc(-n2nc(C)cc2C)nc(NS(=O)(=O)c2ccccc2Cl)n1
  A = -0.2% | B = -7.6% | C = 13.2 | D = -9.9%

Cc1ccc(C(=O)NC(=S)NNS(=O)(=O)c2ccccc2)cc1
  A = -4.5% | B = -2.6% | C = 8.2 | D = 14.6%

CCOC(=O)C1CCCN(C(=O)N2CCOCC2)C1 (centres undefined)
  A = 3.4% | B = -3.2% | C = 4.9 | D = 12.3%

O=C(CCN1CCOCC1)NNC(=O)/C(=C/c1ccccc1)NC(=O)c1ccccc1
  A = -2.4% | B = -3.4% | C = -7.0 | D = -3.0%

Cc1ccc(-c2cn(S(=O)(=O)c3ccc(C)cc3)nc2N)cc1
  A = -0.5% | B = -0.1% | C = 6.3 | D = -4.4%

O=C(NC1CC(=O)N(c2ccccc2)C1)C1CC1 (centres undefined)
  A = -6.7% | B = nt | C = nt | D = -7.9%

Cc1c(NC(=O)COC(=O)/C=C/c2ccc(Cl)cc2)c(=O)n(-c2ccccc2)n1C
  A = -0.2% | B = 8.1% | C = -1.7 | D = 14.3%

O=C(CSCC(=O)Nc1nc(-c2ccc3c(c2)OCO3)cs1)Nc1nccs1
  A = 2.9% | B = -6.1% | C = 8.9 | D = 0.2%

CC(C)(C)Nc1nc(NN)nc(NC(C)(C)C)n1
  A = 0.3% | B = 0.2% | C = 1.6 | D = 0.4%

O=C1c2ccccc2C(=O)N1c1cccc2cccnc12
  A = 1.5% | B = -3.3% | C = 13.1 | D = 13.6%

Sorted by SMILES length (lowest first): 3 of the compounds above
Short keys – A = Rango complex inh; B = miR-21 FLuc; C = GLA inh pH 4.5; D = Rango dissoc inh
O=C1c2ccccc2C(=O)N1c1cccc2cccnc12
  A = 1.5% | B = -3.3% | C = 13.1 | D = 13.6%

N=C1C(c2ccccc2)=C(O)C2CCc3ccccc3N12 (centres undefined)
  A = 2.8% | B = -2.7% | C = 0.1 | D = -0.6%

O=C(CSCC(=O)Nc1nc(-c2ccc3c(c2)OCO3)cs1)Nc1nccs1
  A = 2.9% | B = -6.1% | C = 8.9 | D = 0.2%

Remaining list, next part.
Short keys – A = Rango complex inh; B = miR-21 FLuc; C = GLA inh pH 4.5; D = Rango dissoc inh
CCNCC(=O)N1c2ccccc2CCc2ccc(NC(=O)OC(C)C)cc21
  A = -6.8% | B = -4.1% | C = nt | D = 2.1%

CCN(CC)CCN(C(=O)/C=C/c1cccs1)c1nc2ccc(F)cc2s1
  A = -1.5% | B = -16.3% | C = nt | D = 1.6%

O=C(NCc1cccnc1)c1ccc(NC(=O)c2ccc([N+](=O)[O-])cc2)cc1
  A = -5.3% | B = 9.3% | C = nt | D = 34.4%

CCCCc1ccc(NC(=O)CC(C)=O)cc1
  A = -1.8% | B = -23.2% | C = -5.3 | D = -1.4%

COC(=O)CN(C)C(=O)CC1C(=O)NCCN1CC(C)(C)C (centres undefined)
  A = 0.6% | B = -2.5% | C = -11.3 | D = -15.9%

O=C(CSc1nnc(CNC(=O)c2cccs2)o1)NCC1CCCO1 (centres undefined)
  A = -0.4% | B = 3.1% | C = -9.4 | D = 1.0%

CC(=O)N1C(=O)C2(C(C#N)=C(N)Oc3c2c(C)nn3-c2ccccc2)c2ccccc21 (centres undefined)
  A = -2.1% | B = -1.4% | C = 8.3 | D = 0.1%

Cc1csc(Nc2ccc(C(=O)O)cc2)n1
  A = 3.8% | B = -22.6% | C = -0.3 | D = 11.9%

Cc1cccc(C(C)C)c1NC(=O)C(C)OC(=O)Cn1cnc2c1c(=O)n(C)c(=O)n2C (centres undefined)
  A = 0.7% | B = nt | C = nt | D = -2.1%

CCOc1ccc(C(=O)Nc2ccc(N3CCN(C)CC3)cc2)cc1
  A = -0.2% | B = -14.6% | C = nt | D = -6.7%

O=C1NC[C@H](c2ccccc2)OC(=O)[C@H](Cc2ccc(F)cc2)C/C=C\C[C@H]1CC(=O)N(CCO)Cc1ccccc1
  A = 3.4% | B = nt | C = nt | D = 0.7%

COc1ccccc1NC(=O)NCCCCc1ccccc1
  A = 2.0% | B = -5.8% | C = nt | D = 2.3%

COc1ccccc1-c1c(C)nn2c(C)c(C(C)=O)cnc12
  A = -5.5% | B = -5.5% | C = -0.9 | D = -5.9%

O=C(Nc1ccccc1N1CCCC1)c1ccco1
  A = 0.3% | B = -8.9% | C = 1.4 | D = 0.0%

O=C(c1nc2ccc(Cl)cn2c1CNCCn1ccnc1)N1CCCCCCC1
  A = 0.1% | B = -6.8% | C = -4.0 | D = -3.0%

CCc1nnc(NC(=O)c2cccc(S(=O)(=O)N3CCN(c4ccccc4)CC3)c2)s1
  A = 4.3% | B = 5.9% | C = 1.9 | D = 0.4%

CC(C)C1CCC(C(=O)N[C@H](Cc2ccccc2)C(=O)O)CC1 (some centres undefined)
  A = nt | B = 1.1% | C = 3.5 | D = nt

O=C(Nc1nccs1)c1ccc(S(=O)(=O)NCC2CCCCC2)cc1
  A = 0.7% | B = 17.4% | C = -12.0 | D = 8.3%

Cc1nnc(SCC(=O)Nc2nonc2C)s1
  A = 0.3% | B = 1.1% | C = nt | D = -0.9%

COc1ccc(C(C#N)=C2C=CC(=NO)C=C2)cc1
  A = ? | B = ? | C = -20.3 | D = -10.4%

O=C(Nc1ccc(C(=O)N2CCCC2)cc1)c1ccc(F)cc1Cl
  A = -1.2% | B = -19.1% | C = nt | D = -6.8%

Cn1c(=O)c2c(nc(N3CCCC3)n2C)n(C)c1=O
  A = -3.4% | B = 4.0% | C = nt | D = 3.3%

Cc1nc2nc(SCC(=O)NCCCN3CCOCC3)nn2c(C)c1Cc1ccccc1
  A = -0.6% | B = 2.7% | C = 2.7 | D = 9.6%

Brc1ccc(/C=N/n2cnnc2)s1
  A = 2.9% | B = -2.4% | C = -0.8 | D = -13.5%

CCCCN(CCCC)CC1OCc2ccccc2CO1
  A = 3.8% | B = 2.0% | C = 3.0 | D = -2.3%
